Screening data deposited in PubChem BioAssay by several laboratories.
HSV replic up = enhancers of HSV replication in host cells, fold increase, host cell viability; HSV replication augmentation in cells; actives 0.005% (n = 220,000); maximum fold increase;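 active = peak rise of 1.5-fold or more in the series; tested in PC3 cells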;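 also: first round at 10 µM; read as green reporter fluorescence; hits show the peak of a series up to 25 µM; 1 = signal of infected wells without compound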
GALR2 ag = GALR2 receptor agonists, primary screen, cell-based. Galanin receptor type 2 (Homo sapiens), O43603. GALR2-expressing cells, agonist activation read-out. activation, %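 (tested at 5 µM)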. actives 0.48% (n = 140,000);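 active = above mean plus 3 SD of all compounds, about 5% in these data, not always enough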;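 also: 0% = vehicle buffer wells and 100% = reference agonist at full effect; tested in CHO reporter cells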
PKD1 kinase inh = inhibitors of human PKD1 kinase, biochemical, fluorescence polarization | Serine/threonine-protein kinase D1 (Homo sapiens), Q15139 | PKD1 kinase fluorescence polarization assay | inhibition, %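 (about 10 µM by stock and volumes)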 | actives 0.056% (n = 200,000) | AID 797, 2007;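 active = inhibition of 50% or more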;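 also: controls were vehicle for no effect and a reference inhibitor for full effect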
Target sequence (Q15139 whole entry, looked up): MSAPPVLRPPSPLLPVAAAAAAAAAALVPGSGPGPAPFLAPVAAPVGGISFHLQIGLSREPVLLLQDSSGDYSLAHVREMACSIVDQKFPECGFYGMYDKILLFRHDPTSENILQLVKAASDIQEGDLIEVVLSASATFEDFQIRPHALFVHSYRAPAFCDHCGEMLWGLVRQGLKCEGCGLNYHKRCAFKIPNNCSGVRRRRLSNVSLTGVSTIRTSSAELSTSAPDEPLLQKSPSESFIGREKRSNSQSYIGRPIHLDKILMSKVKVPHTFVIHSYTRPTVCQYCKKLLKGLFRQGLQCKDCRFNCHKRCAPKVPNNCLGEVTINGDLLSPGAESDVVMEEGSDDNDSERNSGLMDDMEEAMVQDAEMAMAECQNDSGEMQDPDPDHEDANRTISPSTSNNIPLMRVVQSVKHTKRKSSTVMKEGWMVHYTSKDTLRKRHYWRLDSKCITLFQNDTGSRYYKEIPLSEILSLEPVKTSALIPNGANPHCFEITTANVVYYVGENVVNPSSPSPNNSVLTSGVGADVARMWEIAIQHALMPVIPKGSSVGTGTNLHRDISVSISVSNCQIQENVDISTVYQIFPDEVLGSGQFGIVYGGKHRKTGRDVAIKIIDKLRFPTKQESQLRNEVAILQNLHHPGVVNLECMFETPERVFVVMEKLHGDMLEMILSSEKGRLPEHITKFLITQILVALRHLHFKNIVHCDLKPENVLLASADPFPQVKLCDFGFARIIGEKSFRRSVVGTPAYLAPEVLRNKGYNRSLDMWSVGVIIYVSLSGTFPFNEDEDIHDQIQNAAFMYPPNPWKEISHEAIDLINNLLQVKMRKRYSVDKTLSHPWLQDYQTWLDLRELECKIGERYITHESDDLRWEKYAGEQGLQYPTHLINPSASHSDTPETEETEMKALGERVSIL
INS promoter inh = inhibitors of insulin promoter-driven GFP, primary screen, imaging, TRM-6 cells (human fetal islet line), eGFP reporter, cell count | reporter expression induced with tamoxifen | inhibition, % at 2 µM | actives 0.9% (n = 130,000) | AID 1273, 2008;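 active = inhibition above the mean plus 3 SD, with well images judged a real hit on visual review, cut at about 60% in these data, passing the limit was not always enough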
RGS16-Gao = modulators of RGS16 binding to Galphao, primary screen, biochemical, human proteins, multiplexed bead flow cytometry; Regulator of G-protein signaling 16 (Homo sapiens) + Guanine nucleotide-binding protein …; binding response (% of control), % at 10 µM; bead-based flow cytometry RGS16-Galphao binding, fluorescence; actives lie on both sides; actives 0.38% (n = 220,000);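 active = below 25% or above 175%, edge rows of some plates excepted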;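 also: Galphao activated by GDP with aluminum fluoride before binding; 100% = wells without compound and 0% = beads without RGS; some results beyond the cut were filed as inactive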
INS promoter inh cell count = also measured in INS promoter inh; calls as there; normalized cell count, %; measured here: cell count, toxicity; reference of the scale not given here;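 cells exposed to compound for 48 h; stained nuclei by imaging scaled within each plate; lower means fewer cells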
HSV replic up primary fold = further read-out of HSV replic up, marked with its call; fold increase; compound at 10 µM; measured here: primary screen fold increase 10 uM; tested in PC3 cells;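 GFP signal in the first replicate; 1 = infected wells without compound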
Active calls of the source: *; i = inactive; . = not tested or not shown.

Below each SMILES – HSV replic up, HSV replic up primary fold, GALR2 ag, PKD1 kinase inh, INS promoter inh, INS promoter inh cell count, RGS16-Gao
> CCOC(=O)c1sc2nc(Cc3ccc(Cl)cc3)[nH]c(=S)c2c1C
  i, 1, ., -4, ., ., 91
> CCOC(=O)CSc1nc2ccc(C)cc2[nH]1
  i, 1, -1.0, -7, 53, 126, 99
> Cc1ccc(OCCOCCN(C)C)c(Cl)c1
  i, 1, -0.6, -1, 19, 117, 101
> O=C(Nc1ccc(Oc2ncnc3cc(Cl)ccc23)nc1)Nc1cccc(C(F)(F)F)c1
  i, 0.92, ., ., ., ., 97
> Cc1ccc(S(=O)(=O)Nc2ccc(N3CCOCC3)cc2)cc1[N+](=O)[O-]
  i, 0.96, ., 2, ., ., 102
> COc1ccc(CCNC(=O)CSc2nc3[nH]ncc3c(=O)n2-c2ccc(Br)cc2)cc1OC
  i, 0.84, ., -5, 30, 89, 97
> Cc1cc(C)nc(SCC(=O)Nc2sc3c(c2C#N)CCC(C)C3)n1 (stereo not given)
  i, 0.96, -1.2, -5, -344, 63, .
> Cc1cccc(NC(=O)C2(c3cccs3)CCOCC2)c1
  i, 0.86, -0.8, -5, 20, 43, 104
> Cc1cc(-c2ccccc2)n2nc(C)c(C#N)c2n1
  i, 0.85, -2.1, -6, 3, 135, 99
> N#Cc1ccc(-c2cccnc2)nc1SCC(=O)Nc1sc2c(c1C#N)CCC2
  i, 1.1, 6.9*, -4, 0, 120, 101
> COc1cc2nc(SCc3c(C)noc3C)n(CCC3=CCCCC3)c(=O)c2cc1OC
  i, 0.84, -1.6, -4, ., ., 93
> CCOC(=O)CN1C(=O)c2ccccc2C1=O
  i, 0.97, -3.0, -2, 56, 109, 100
> O=C(O)CN(c1ccccn1)S(=O)(=O)c1ccccc1
  i, 1.1, -2.5, -1, -14, 144, 176
> COc1ccccc1NC(=O)COc1ccccc1C(=O)c1cnn(-c2ccccc2)c1
  i, 0.83, -0.4, -4, ., ., 106
> CC(NCc1ccc2c(c1)OCO2)C(=O)NC1CCCc2ccccc21 (stereo not given)
  i, 1, -0.7, -6, 11, 97, 100
> CCCC(OC(=O)CC1Sc2ccccc2NC1=O)C(=O)NCc1ccco1 (stereo not given)
  i, 0.95, -1.2, -9, 18, 112, 72
> COc1ccc(NC(=O)N2CCCCC2)cc1
  i, 0.71, -2.3, -5, 80*, 102*, 106
> COc1cc(/C=C/C(=O)OCc2c(C)noc2C)ccc1OC(F)F
  i, 0.94, ., 4, ., ., 99
> O=C(NC(NC(=S)Nc1c(Cl)cc(Cl)cc1Cl)C(Cl)(Cl)Cl)OCc1ccccc1 (stereo not given)
  i, 0.91, 2.4, -2, -26, 113, 100
> Cn1nnnc1SCc1cccc2ccccc12
  i, 0.91, ., -8, ., ., 104
> C#CCNC(=O)C1=C[C@@H](c2cn(C(C)=O)c3ccccc23)C[C@@H](OCc2ccc(CO)cc2)O1
  i, 1.1, ., -5, ., ., 107
> CC(=O)Nc1ccc(Nc2cc(C)nc3c(-c4ccccc4)c(C)nn23)cc1
  i, 0.78, 2.0, -4, ., ., 116
> CCC(C)[C@H](NC(=O)NCc1ccc(Cl)cc1)C(=O)OC (stereo not given in full)
  i, 0.95, -0.3, -10, 36, 81, 103
> N#C/C(=C\c1ccc(Cl)cc1)c1nc2ccccc2o1
  i, 0.95, -0.3, 1, 14, 96, 108
> CC(C(=O)Nc1ccc2c(c1)OCO2)N(c1ccc(Cl)cc1)S(C)(=O)=O (stereo not given)
  i, 1.2, -2.0, -4, 0, 110, 98
> CCN(CC)N=Nc1cccc(NC(C)=O)c1
  i, 1.1, ., 7, ., ., 101
> O=C(O)c1cc(NN=C2CCN(Cc3ccccc3)CC2)ccc1Cl
  i, 0.95, ., ., ., ., 93
> Cn1c(/C=N/NC(=O)c2ccccc2)nc2ccccc21
  i, 1.1, -1.5, 3, 34, 147, 87
> NC(=O)c1c(NC(=S)Nc2ccccc2)sc2c1CCCC2
  i, 1.1, ., -2, -44, 130, 96
> CN1C[C@@H]2C(c3ccccc3)C3(c4ccc(C#N)cc4)CC2(C3)[C@H]1c1ccccc1 (stereo not given in full)
  i, 0.87, ., ., ., ., 99
> COc1cccc(C(C(=O)NC2CCCCC2)N(C(=O)c2ccco2)c2ccc(-n3cnnn3)c(C)c2)c1 (stereo not given)
  i, 1, -0.7, -3, 51, 141, 114
> N#CC1=C(N)C(C#N)(C#N)[C@H](c2ccncc2)[C@H]2CN(C(=O)OCc3ccccc3)CC=C12
  i, 1.2, 0.8, 1, ., ., 96
> CC(C)OC(=O)c1ccc(OC(=O)c2cccnc2)cc1
  i, 0.95, -1.8, 1, 0, 113, 101
> S=c1[nH]nc(-c2ccco2)n1Cc1ccccc1
  i, 1.1, -1.7, -2, -407, 37, 98
> COc1ccccc1N1CCN(C(=O)CCc2ccc(S(=O)(=O)NC(C)C)cc2)CC1
  i, 1, -0.6, -4, -64, 91, 101
> CCCOC(=O)c1cc(-c2ccc(C=O)o2)ccc1Cl
  i, 1.2, 0.6, -7, ., ., 100
> CCOC(=O)COc1ccc(S(=O)(=O)Nc2ccc(C)cc2)cc1
  ., ., 1.1, -4, -54, 95, 107
> COC1(NC(=O)c2ccccc2)C(C)=CC(=O)C=C1C
  i, 0.96, ., 7, -17, 70, 103
> O=C1NN(c2ccc(F)c(Cl)c2)C(=O)/C1=C\c1cccc(OC(=O)c2cccs2)c1
  i, 0.82, -1.1, 6, -19, 127, 101
> CC(C)(C)C1CCC(=NNC(=S)NCc2ccccc2)CC1 (stereo not given)
  i, 0.85, ., -3, ., ., 99
> COc1cc(C(C)=O)ccc1COc1ccc(C(=O)OCC(N)=O)cc1OC
  i, 0.94, -0.5, -11, 16, 115, 106
> CCc1c(C)nc2cc(-c3cc(OC)cc(OC)c3)nn2c1N1CCCC1
  i, 0.91, -0.4, -8, ., ., 101
> O=c1cc(-c2ccccc2)nc(SCc2ccccc2F)[nH]1
  i, 1.1, ., -4, 35, 92, 106
> Cc1cc(C)c(S(=O)(=O)c2ccccc2C)c(SCC(C)C)n1
  i, 0.92, -1.4, -8, -32, 91, 96
> Cc1cnc(NC(=O)CSc2nnc(COc3c(C)cccc3C)o2)s1
  i, 0.88, 1.0, -4, ., ., 143
> CCOc1ccc(S(=O)(=O)Nc2ccc3c(c2)c2c(n3S(=O)(=O)c3ccc(OCC)cc3)CCCC2=O)cc1
  i, 0.88, 0.0, -7, -65, 99, 101
> C=CCOC(=O)C1=C[C@@H](c2ccccc2)C[C@@H](OCc2ccc(CO)cc2)O1
  i, 0.78, ., 10, ., ., 108
> CC1CCN(c2ccccc2NC(=S)NC(=O)c2ccco2)CC1
  i, 1.5, -1.6, -11, -230, 106, .
> COc1ccccc1C(=O)Nc1ccccc1N1CCOCC1
  i, 0.94, -2.8, -8, 0, 105, 99
> CCC(=O)Nc1ccnc(-c2cccnc2)n1
  i, 0.98, 0.0, 2, 0, 72, 102

Next structures
Below each SMILES – HSV replic up, HSV replic up primary fold, GALR2 ag, PKD1 kinase inh, INS promoter inh, INS promoter inh cell count, RGS16-Gao
> O=C(Nc1ccc2c(c1)OCCO2)c1cccnc1
  i, 1, 3.9, 0, 0, 98, 103
> Cc1ccc(/C=N/NC(=O)CC(=O)NCc2cccnc2)cc1
  i, 0.95, 0.1, 1, -25, 113, 108
> COc1ccccc1N1CCN(C(=O)c2cc3c(-c4ccc(Cl)cc4)nn(C)c3s2)CC1
  i, 0.94, -3.9, -8, ., ., 100
> O=C(CN1CCC(Cc2ccccc2)CC1)NC(=O)NCc1ccccc1
  i, 1, 0.8, -6, ., ., 121
> Clc1cccc(Cl)c1CSc1nnc2ccccn12
  i, 1.1, -1.6, -3, ., ., 75
> COC(=O)CN1C(=O)N/C(=C/c2ccc(OC)c(C)c2OC)C1=O
  i, 0.98, ., -4, 64, 56, 110
> Cn1c(=O)oc2cc(S(=O)(=O)N3CCCC(C(=O)NCc4ccc5c(c4)OCO5)C3)ccc21 (stereo not given)
  i, 0.96, 0.0, -14, ., ., 101
> CC(c1ccccc1)n1cnc2ccccc21 (stereo not given)
  i, 0.89, -0.3, 1, ., ., 82
> Nc1nc(C(=O)N2CCOCC2)nn1S(=O)(=O)c1ccccc1
  i, 0.85, -3.6, -3, ., ., 94
> COCCn1nnnc1SCC(=O)c1ccccc1
  i, 0.92, -1.4, -8, 6, 67, 98

Sorted by molar mass (low to high): part of the list above
Below each SMILES – HSV replic up, HSV replic up primary fold, GALR2 ag, PKD1 kinase inh, INS promoter inh, INS promoter inh cell count, RGS16-Gao
> CC(c1ccccc1)n1cnc2ccccc21 (stereo not given)
  i, 0.89, -0.3, 1, ., ., 82
> CCC(=O)Nc1ccnc(-c2cccnc2)n1
  i, 0.98, 0.0, 2, 0, 72, 102
> O=C(Nc1ccc2c(c1)OCCO2)c1cccnc1
  i, 1, 3.9, 0, 0, 98, 103
> COCCn1nnnc1SCC(=O)c1ccccc1
  i, 0.92, -1.4, -8, 6, 67, 98
> Clc1cccc(Cl)c1CSc1nnc2ccccn12
  i, 1.1, -1.6, -3, ., ., 75
> COc1ccccc1C(=O)Nc1ccccc1N1CCOCC1
  i, 0.94, -2.8, -8, 0, 105, 99
> COC(=O)CN1C(=O)N/C(=C/c2ccc(OC)c(C)c2OC)C1=O
  i, 0.98, ., -4, 64, 56, 110
> Nc1nc(C(=O)N2CCOCC2)nn1S(=O)(=O)c1ccccc1
  i, 0.85, -3.6, -3, ., ., 94
> O=C(CN1CCC(Cc2ccccc2)CC1)NC(=O)NCc1ccccc1
  i, 1, 0.8, -6, ., ., 121
> COc1ccccc1N1CCN(C(=O)c2cc3c(-c4ccc(Cl)cc4)nn(C)c3s2)CC1
  i, 0.94, -3.9, -8, ., ., 100
> Cn1c(=O)oc2cc(S(=O)(=O)N3CCCC(C(=O)NCc4ccc5c(c4)OCO5)C3)ccc21 (stereo not given)
  i, 0.96, 0.0, -14, ., ., 101

The results go on.
Below each SMILES – HSV replic up, HSV replic up primary fold, GALR2 ag, PKD1 kinase inh, INS promoter inh, INS promoter inh cell count, RGS16-Gao
> CC(C)Oc1cccc(C(=O)Nc2ccc(CN3CCOCC3)cc2)c1
  i, 1.1, -2.6, -7, 62, 124, 104
> Cc1cc(-c2onc(C)c2C(=O)O)no1
  i, 1, ., ., ., ., 100
> COC(=O)C(O)(CC(=O)Nc1ccc(Cl)cc1F)C(F)(F)F (stereo not given)
  i, 1, -1.9, -7, -8, 127, 107
> CCN(CC(=O)NCc1cccs1)C(=O)c1cccc(S(=O)(=O)N2CCc3ccccc32)c1
  i, 0.9, ., -7, ., ., 100
> Cc1ccc(NNC(=O)c2cc(C)on2)c(C)c1
  i, 1.1, ., ., ., ., 78
> Cn1nc(-c2ccc(S(N)(=O)=O)s2)cc1C(F)(F)F
  i, 1, ., ., ., ., 98
> CN(C)c1ccc(/C=N\NC(=O)c2ccc(Cn3cc(Cl)cn3)cc2)cc1
  i, 0.8, -2.7, -14, 36, 80, 103
> Cc1cccc(C)c1NC(=O)N1C2CCC1CC(O)(c1cccnc1)C2 (stereo not given)
  i, 0.82, ., 1, -53, 159, 105
> CSc1ccc(CNc2nc3ccccc3n3cnnc23)cc1
  i, 0.82, ., ., ., ., 102
> CSc1ccccc1NC(=O)C1CC(c2ccccc2O)=NO1 (stereo not given)
  i, 0.99, -2.0, -3, 3, 79, 104
> O=C(NCCN1CCCCC1)c1ccco1
  i, 1, -2.7, 7, -261, 85, 106
> Cc1cc(C(=O)OCC(=O)Nc2cc(S(=O)(=O)N(C)C)ccc2C)c2ccccc2n1
  i, 0.81, ., 0, 28, 126, 105
